Rce1 inhib = blocks yeast Ras-converting enzyme; yeast membranes, quenched prenylated peptide cleavage fluorescence; calls only; Q03530; actives 0.27% (n = 290,000);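 active = fall in fluorescence gain of 50% or more versus controls, with final raw signal at or below 3038400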;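 also: plate controls were neutral control wells for no effect and wells lacking membranes for full effect; tested at 10 µM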
UUG fidelity = modulators of start codon recognition fidelity in yeast; S. cerevisiae UUG-firefly luciferase reporter, luminescence/redox ratio; activity score, % at 18.7 µM; actives 0.13% (n = 350,000);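 active = replicate mean at a twofold rise or more, about +100% in these data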;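 also: firefly luciferase made from a UUG start codon reports start codon fidelity; reporter light over untreated wells divided by growth signal over untreated wells; some hits fall short of that in this replicate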
HIV Env fusion = HIV envelope-mediated fusion inhibition. HeLa-JRFL Env/CEM21 cell fusion, luciferase. inhibition, % at 12.3 µM. actives 1.1% (n = 360,000);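 active = mean replicate inhibition score of at least 50 and every replicate individually at or above 50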;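 also: 0% = plate neutral controls and 100% = maraviroc near 300 nM; one replicate is shown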
eIF4H inh = inhibitors of RNA binding by human eIF4H | actives 0.94% (n = 290,000) | inhibition, % at 35 µM | eIF4H fluorescence polarization binding assay | Q15056;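 active = 50% or more with normal probe brightness, or confirmed in later tests; about a fifth of its hits are not listed in these tables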;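 also: calls also rest on retests at 20 µM and on dose response follow-up; 0% = protein and probe with vehicle and 100% = probe without protein; strong numbers were not always called active; many hits fall short of the cut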
PABP polyA inh = blocks human PABP binding to poly(A) RNA; P11940; fluorescence polarization; inhibition, % at 35 µM; actives 1% (n = 290,000); AID 2014;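 active = 50% or more with normal probe brightness, or confirmed in later tests; about a fifth of its hits are not listed in these tables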;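 also: calls also rest on retests at 20 µM and on dose response follow-up; controls were probe without protein and protein plus probe with vehicle; some compounds called inactive have numbers as strong as hits; many hits fall short of the cut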
Target sequence (P11940 whole entry, looked up): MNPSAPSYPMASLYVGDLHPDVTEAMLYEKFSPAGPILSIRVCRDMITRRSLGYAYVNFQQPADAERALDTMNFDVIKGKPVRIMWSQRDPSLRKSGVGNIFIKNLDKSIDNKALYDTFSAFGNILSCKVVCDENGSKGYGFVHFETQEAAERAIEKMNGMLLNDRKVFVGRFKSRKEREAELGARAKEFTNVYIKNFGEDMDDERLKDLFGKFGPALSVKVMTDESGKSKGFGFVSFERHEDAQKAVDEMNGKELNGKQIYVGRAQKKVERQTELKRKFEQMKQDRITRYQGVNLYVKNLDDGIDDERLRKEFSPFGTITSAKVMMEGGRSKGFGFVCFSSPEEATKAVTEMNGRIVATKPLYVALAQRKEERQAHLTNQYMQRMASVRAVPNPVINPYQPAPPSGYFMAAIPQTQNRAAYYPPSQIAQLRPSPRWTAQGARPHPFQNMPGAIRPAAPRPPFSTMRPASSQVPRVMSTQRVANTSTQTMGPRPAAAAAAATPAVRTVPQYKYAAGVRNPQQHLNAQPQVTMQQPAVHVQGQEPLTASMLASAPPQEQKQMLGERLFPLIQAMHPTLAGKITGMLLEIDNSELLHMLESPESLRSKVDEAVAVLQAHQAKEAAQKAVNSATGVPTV
CSC inhib = cancer stem cell inhibition; cancer stem cell-like cells viability, luminescence; inhibition, % at 7.5 µM; actives 1.1% (n = 300,000);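 active = mean at 75% or more and at least half the replicates too; tested in HMLE shEcad cells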;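 also: 0% = median of negative and 100% = median of positive control wells; the first replicate is given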
MT1-MMP act inh = MT1-MMP (human) activation inhibition; HT1080 RFP-PRO-GFP cells, GFP/RFP ratio fluorescence, overnight; percent of plate control window, DMSO zero; actives 0.061% (n = 360,000); P50281; GFP/RFP ratio change, % at 20 µM;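 active = GFP/RFP ratio change of at least 30% with cell ATP level not reduced by more than half and red fluorescence within 50% of control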; also: strong numbers were not always called active
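Assay system: HT1080 cells carrying an RFP-PRO-GFP reporter | Dosing: Single dose of 20 µM compound, 1% DMSO final | Incubation: Cells overnight before dosing, compound overnight, 37 °C, 5% CO2 | Evaluation: GFP/RFP fluorescence ratio | Control set: DMSO and RFP-L50D-GFP cell wells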
MT1-MMP act inh RFP = recorded beside MT1-MMP act inh, whose call it bears; RFP signal change, %; measured here: RFP expression control read;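 0 = vehicle wells; hits needed this value within 50% of zero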
The depositor's hits bear a star; i = inactive; nt = no result given.

molecule	Rce1 inhib	UUG fidelity	HIV Env fusion	eIF4H inh	PABP polyA inh	CSC inhib	MT1-MMP act inh	MT1-MMP act inh RFP
CC1CCN(S(=O)(=O)c2ccc(NC(=O)CN3CCN(c4ccccc4)CC3)cc2)CC1	i	-5	nt	-2	-7	8	-5	-12
O=C(NC(c1ccc(Cl)cc1)c1c(O)ccc2ccccc12)c1ccccc1 (configuration not stated)	nt	-15	nt	-15	-26	107*	-9	-36
CC(NCc1ccccc1Cl)C(=O)Nc1ccc(C#N)cc1 (configuration not stated)	i	nt	11	-5	-9	-7	-2	-5
CCOCCOCCC(C(=O)OCC)P(=O)(c1ccccc1)c1ccccc1 (configuration not stated)	i	-5	-7	-3	-1	-12	0	3
CCCN1CCN(C(=O)C(NC(=O)c2ccco2)C(C)C)CC1 (configuration not stated)	i	-2	-4	5	-3	-2	0	-2
CCN1C(=O)C(CC(=O)Nc2ccc(OC)cc2)N(CCc2ccc(OC)cc2)C1=S (configuration not stated)	i	nt	-6	4	5	53	5	-7
Cc1ccc(C)c(NC(=O)c2cc(-c3ccccc3)nn2-c2ccccc2)c1	i	-9	9	-3	1	89*	-7	-12
Cc1c(CCO)c(=O)n2c([nH]c3ccccc32)c1C#N	i	-12	-1	-5	0	-5	3	4
O=C(OCC(=O)N(Cc1ccccc1)Cc1ccccc1)c1ccccc1NCCO	i	nt	-8	nt	nt	-12	-1	-4
O=C(Nc1ccc(Cl)cc1)C1CCCCN1S(=O)(=O)c1ccccc1 (configuration not stated)	nt	-16	nt	nt	nt	-16	3	-9
COCCCNC(=S)N1CCN(c2nc(C)nc3sc4c(c23)CCCC4)CC1	i	-14	16	-14	4	nt	3	-13
Cc1c(C(=O)Nc2ccc(F)cc2)oc2ccc(S(=O)(=O)N3CC(C)CC(C)C3)cc12 (configuration not stated)	i	-27	nt	-2	10	23	0	-18
CCNC(=O)C1(C)CCCN(C(=O)c2csc3ccccc23)C1 (configuration not stated)	nt	-8	7	nt	nt	nt	3	4
Cc1ccc(NC(=S)Nc2cccc3cnccc23)cc1	i	-29	-2	20	-20	-13	-4	0
COc1cccc(-c2cc(C(=O)NCCN3CCOCC3)no2)c1	i	-17	0	5	-6	-4	1	0
COc1ccc(OCCC(=O)Nc2nccs2)cc1	i	nt	-4	-4	-3	1	0	5
O=C(OCC(=O)N1CCCC1)c1c(Cl)cccc1Cl	i	-16	3	-5	4	-18	0	4
COc1ccc(-c2coc3c(C(=O)NCc4ccc(C(F)(F)F)cc4)cccc23)c(C)c1	nt	6	67*	nt	nt	nt	-12	-28
CCc1ccc(NS(=O)(=O)c2ccc(OC)c3ncccc23)cc1	i	-11	0	-2	2	-8	5	-2
C=CCNC(=O)c1c(O)c2cccc3c2n(c1=O)CCC3	i	-13	8	-2	4	5	-2	3

Individual results from the results shown:
CCN1C(=O)C(CC(=O)Nc2ccc(OC)cc2)N(CCc2ccc(OC)cc2)C1=S (configuration not stated) @ MT1-MMP act inh = 5
CCOCCOCCC(C(=O)OCC)P(=O)(c1ccccc1)c1ccccc1 (configuration not stated) @ PABP polyA inh = -1
CCNC(=O)C1(C)CCCN(C(=O)c2csc3ccccc23)C1 (configuration not stated) @ HIV Env fusion = 7

Carrying on.
molecule	Rce1 inhib	UUG fidelity	HIV Env fusion	eIF4H inh	PABP polyA inh	CSC inhib	MT1-MMP act inh	MT1-MMP act inh RFP
CCc1c(C)[nH]c2nc3ccccc3n2c1=O	i	4	-346	3	4	nt	0	8
COc1ccc(Br)cc1C(=O)Nc1nnn(C)n1	i	-15	7	-3	-17	-7	-4	-1
S=C(Nc1ccccc1)N1CCN(C(=S)c2ccccc2)CC1	i	nt	11	10	-20	-16	2	-3
CC1Cc2ccccc2N1C(=O)C1CCN(S(=O)(=O)Cc2ccccc2)CC1 (configuration not stated)	i	-15	19	-12	-4	-9	3	-2
CC(=O)OC1OCCOC1NC(=S)Nc1ccc(C)cc1 (configuration not stated)	i	-21	-11	1	-5	-11	1	4
CCc1nc(SCC(=O)NCCc2ccccc2)n[nH]1	i	-10	nt	-7	-6	16	0	4
CC1CCC(NC(=O)c2ccc(COc3ccccc3)o2)CC1 (configuration not stated)	nt	-12	nt	nt	nt	14	-4	-4
CCOC(=O)CSc1nc2sc(C(=O)O)c(C)c2c(=O)[nH]1	i	1	19	1	10	6	2	3
COc1ccc(NC(=O)CSCC(=O)N(C)Cc2ccc(Cl)c(Cl)c2)cc1	nt	-1	nt	nt	nt	9	1	-3
Cc1noc(C)c1COc1ccc(C(=O)N2CCC(C)CC2)cc1	nt	-8	-5	nt	nt	0	0	-3
Cc1ccc(NC(=S)N2CCCCC2)cc1C	i	nt	-11	2	-2	-2	3	5
Cc1c(NC(=O)c2cc(=O)[nH]c3ccccc23)c(=O)n(-c2ccccc2)n1C	i	3	-35	4	-8	-2	-7	-2
COC(=O)c1ccc(C(=O)NC2CC(C)(C)Cc3c2cnn3-c2ccc(F)cc2)nc1 (configuration not stated)	i	9	nt	-3	-2	1	-5	-10
O=C(O)CC(CP(=O)(c1ccccc1)c1ccccc1)C(=O)O (configuration not stated)	i	-2	nt	9	8	nt	1	0
O=C(CCC(=O)Nc1ccccc1Cl)N/N=C/c1c[nH]c2ccccc12	i	-6	nt	15	-5	-2	0	7
CCn1ncc2c1C(=O)NC1c3ccccc3C(=O)N21 (configuration not stated)	i	-25	-11	8	7	0	-9	-2
O=C(CN1c2cccc3cccc(c23)S1(=O)=O)Nc1c(F)c(F)c(F)c(F)c1F	nt	-11	-22	nt	nt	-12	-1	2
O=C(c1cccc(Cl)c1)N1CCN(CCCc2ccccc2)CC1	i	-4	5	21	3	-10	1	1
CC(=O)N(C(C)=O)n1c(C)nc2sc3c(c2c1=O)CCCC3	i	nt	10	-9	-10	-11	2	4
COc1ccc(N)c2c1C(=O)c1ccccc1C2=O	i	-2	-113	12	3	31	67	66
CC1=C(C(=O)OCC2CCCO2)C(c2coc3ccc(Cl)cc3c2=O)C2=C(CCCC2=O)N1 (configuration not stated)	i	18	10	-1	15	-7	-7	-6
CC(C)(C)SCCNC(=O)c1cccc([N+](=O)[O-])c1	i	nt	nt	2	11	-16	1	2
O=C(Nc1cccc(S(=O)(=O)NC2=NCCC2)c1)c1cc(=O)[nH]c2ccccc12	nt	-4	-6	nt	nt	nt	4	-2
O=C(CSc1nnc(NC2CCCCC2)s1)NN1C(=O)NC2(CCCCC2)C1=O	i	-6	-33	-5	-8	8	0	2
c1ccc(Cn2nnc3c(NCC4CCCO4)ncnc32)cc1 (configuration not stated)	i	-13	-12	2	-12	-8	-1	3
COCCCNc1oc(-c2cccs2)nc1S(=O)(=O)c1ccc(C)cc1	i	nt	-7	-1	11	9	2	0
COc1ccc(NC(=O)c2sccc2C)cn1	i	1	-20	-2	7	14	2	4
CC(=O)c1cn(CC(=O)Nc2ccccc2F)c2ccccc12	nt	-2	3	2	12	11	5	-20
COc1ccc(CNC(=O)c2cccc3c(-c4cnn(C)c4)coc23)cc1OC	nt	-3	32	nt	nt	nt	-4	-28
COc1ccc(C2=C(c3ccc([N+](=O)[O-])cc3)C(=O)OC2)cc1	i	nt	-6	-2	-12	7	-2	-4
Cc1ccc(Cl)cc1NC(=S)N(CCCN1CCN(C)CC1)Cc1cccs1	i	-21	10	2	39	nt	4	-2
CCc1ccccc1N(CC(=O)N1CCN(c2ccccc2)CC1)S(C)(=O)=O	i	-15	-25	3	-2	-3	6	6
O=CNCC(=O)NCCc1ccc(Cl)cc1	i	-8	12	-6	3	10	8	3
Nn1c(SCc2cccc(C(F)(F)F)c2)nnc1-c1ccco1	i	-24	19	-10	-4	11	1	0
COc1ccc(CCn2nnnc2C(C(C)C)N2CCC(C(N)=O)CC2)cc1OC (configuration not stated)	i	-12	nt	-16	-10	0	2	3
O=C1CC(c2c(F)cccc2Cl)C(n2cncn2)C(O)=C1C1NCCc2ccccc21 (configuration not stated)	i	-5	-3	35	2	-17	1	2
CCCCN(C(=O)CSCC(=O)Nc1ccc(OC)cc1)c1c(N)n(CCC)c(=O)[nH]c1=O	i	1	0	nt	nt	-14	-2	0
O=C(CSc1nccn1Cc1ccccc1)Nc1nccs1	i	-12	nt	-6	0	nt	6	5
CCCc1nc(SCC(=O)N2CCC(C)CC2)c2c(=O)n(C)c(=O)n(C)c2n1	i	nt	-5	4	-10	-12	7	-6
COc1ccc(Cl)cc1N(CC(=O)N1CCCC1)S(=O)(=O)c1ccc(C)cc1	i	nt	4	-6	2	-6	-5	0

Entries from the list above that contain a cyano group:
molecule	Rce1 inhib	UUG fidelity	HIV Env fusion	eIF4H inh	PABP polyA inh	CSC inhib	MT1-MMP act inh	MT1-MMP act inh RFP
CC(NCc1ccccc1Cl)C(=O)Nc1ccc(C#N)cc1 (configuration not stated)	i	nt	11	-5	-9	-7	-2	-5
Cc1c(CCO)c(=O)n2c([nH]c3ccccc32)c1C#N	i	-12	-1	-5	0	-5	3	4

Other structures follow.
molecule	Rce1 inhib	UUG fidelity	HIV Env fusion	eIF4H inh	PABP polyA inh	CSC inhib	MT1-MMP act inh	MT1-MMP act inh RFP
Cn1c(-c2ccccc2)cnc1SCC(=O)N1CCCCC1	i	-73	nt	0	-10	-7	13	3
CN(C)CC#CCCCCCCC#CCN(C)C	nt	nt	nt	5	17	35	nt	nt
Cc1[nH]c2ccccc2c1/C=C(\C#N)S(=O)(=O)c1ccccc1	i	4	1	-10	7	4	4	0
CCOC(=O)/C(C#N)=C1/C=C(C)c2ccccc2N1	i	nt	-14	15	16	-10	-1	-4
Cc1ccc(/C=N/Nc2ccc(F)cc2F)s1	i	-9	1	-2	5	20	3	0
CC(=O)Nc1cc(-c2ccc(Cl)cc2)nn1-c1ccccc1	nt	-12	nt	-8	20	-1	4	15
O=C(COc1ccc(S(=O)(=O)N2CCCCC2)cc1)N1CCOCC1	i	3	nt	-17	-4	-10	2	1
CN(CCOc1ccc(F)cc1)Cc1ccccc1	i	7	5	13	7	nt	-3	-2
CCOc1ccccc1-n1c(CN2CCN(C(=O)c3ccco3)CC2)nc2ccccc2c1=O	i	nt	31	-11	10	61	-35	-19
CCc1cc(=O)oc2c(C)c(O[C@@H]3O[C@H](CO)[C@@H](O)[C@H](O)[C@H]3O)ccc12	i	-7	13	2	-8	-4	-18	0
CN(C)S(=O)(=O)c1ccc(C(=O)NCCN2C(=O)S/C(=C\c3cccnc3)C2=O)cc1	i	nt	18	-13	-3	7	-2	0

Three compounds already listed, ordered by the value under HIV Env fusion, smallest number first:
SMILES	HIV Env fusion
CN(CCOc1ccc(F)cc1)Cc1ccccc1	5
CN(C)S(=O)(=O)c1ccc(C(=O)NCCN2C(=O)S/C(=C\c3cccnc3)C2=O)cc1	18
CCOc1ccccc1-n1c(CN2CCN(C(=O)c3ccco3)CC2)nc2ccccc2c1=O	31

Screening data (PubChem BioAssay)
